# Beta2AR agonist: activates human beta-2 adrenergic receptor causing internalization; P07550; Am2.2-beta2AR cells, FAP receptor internalization, flow cytometry; reference of the scale not given here; response, % (test concentration not listed); hit rate 0.43% among 340,000; AID 504454;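 active = response above a set limit, near 3 SD of response in nonfluorescent compounds, cut at about 42% in these data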;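 also: stock transfer was 100 nL into about 11 µL; a reference agonist was the positive control; negative values mostly stem from fluorescent compounds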
# Target sequence (P07550 whole entry, looked up): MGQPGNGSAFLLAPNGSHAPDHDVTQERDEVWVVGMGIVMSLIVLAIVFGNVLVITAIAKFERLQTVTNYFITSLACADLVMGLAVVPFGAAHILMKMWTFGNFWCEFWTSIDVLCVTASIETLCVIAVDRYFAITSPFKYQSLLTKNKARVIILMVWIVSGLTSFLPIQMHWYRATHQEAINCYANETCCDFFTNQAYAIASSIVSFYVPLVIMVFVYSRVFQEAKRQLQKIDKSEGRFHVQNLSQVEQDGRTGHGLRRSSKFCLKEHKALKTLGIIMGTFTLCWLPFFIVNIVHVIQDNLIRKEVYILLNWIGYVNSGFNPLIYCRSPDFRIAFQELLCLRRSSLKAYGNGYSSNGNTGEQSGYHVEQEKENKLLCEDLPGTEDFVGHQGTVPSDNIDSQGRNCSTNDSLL
# Calb FLC: affects C. albicans growth with fluconazole; C. albicans CaCi-2 (fluconazole-resistant clinical isolate) + fluconazole, Alamar Blue growth, 48 h; growth inhibition, % (concentration not given with the values); hit rate 0.57% among 300,000; AID 1979;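 active = most replicates above 75%; inconclusive = exactly half above 75%; inactive = most below 75%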;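 also: all wells also contain fluconazole at 8 µg/ml as a sub-toxic cotreatment; 0% = median of DMSO wells and 100% = median of geldanamycin control wells; wells of about 8 µL received 7.5 nL stock; the first replicate is given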
# T cruzi inh: T. cruzi replication inhibition. T. cruzi beta-gal in NIH3T3, luminescence, 90 h. inhibition, % (test concentration not listed). hit rate 1.4% among 300,000. AID 1885;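 active = mean inhibition across valid replicates above about 55%, limit read from the data; inconclusive = mean below that limit but half or more replicates reach it; inactive = mean below it, under half of replicates reach it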;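 also: signal also drops with host cell toxicity which is not excluded here; 0% = plate median of DMSO wells and 100% = zero luminescence signal; higher percent means less beta-gal luminescence so fewer parasites; stock transfer was 50 nL into about 50 µL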
# ALR H2O2 inh: inhibitors of human sulfhydryl oxidase ALR. P55789. purified ALR, DTT oxidation, H2O2 HRP-luminol luminescence. inhibition, % (concentration not given with the values). hit rate 3.8% among 290,000;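 active = mean and each replicate at 75% or more; inconclusive = only one of the two met; inactive = neither met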;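 also: stock transfer was 7.5 nL into about 7.5 µL; 0% = neutral wells and 100% = wells with inactivated enzyme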
# Target sequence (P55789 whole entry, looked up): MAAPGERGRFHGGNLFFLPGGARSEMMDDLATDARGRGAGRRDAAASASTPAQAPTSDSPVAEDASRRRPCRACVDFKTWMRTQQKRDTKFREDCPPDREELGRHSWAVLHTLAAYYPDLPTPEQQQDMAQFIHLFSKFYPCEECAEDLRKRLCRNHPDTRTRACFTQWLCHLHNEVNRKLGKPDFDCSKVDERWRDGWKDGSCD
# Beta cell apopt: blocks beta cell apoptosis; hit rate 0.8% among 300,000; protection from apoptosis, % (no concentration beside the values); INS-1E cytokine-induced death, ATP luminescence, 48 h; percent of positive-control rescue, neutral wells zero; AID 435005;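 active = all replicates at 75% or more, or half of them and the mean; inconclusive = half reach 75% but not the mean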;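 also: 0% = cytokine-treated negative control wells and 100% = positive control rescue; higher means more ATP so stronger rescue from cytokine killing; wells of about 40 µL received 100 nL stock; the first replicate is given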
# Ecoli rRNA inh: inhibitors of bacterial rRNA selective over humanized ribosomes; E. coli WT GFP vs humanized-ribosome RFP mutants, fluorescence, 24 h; hits give low values; DMSO median 0, no signal -100; GFP signal change (wild-type ribosome), % (test concentration not listed); hit rate 1.6% among 350,000;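 active = significant combined selectivity score with lowered wild-type GFP, culture density cut under 30%, mutant RFP and density less affected; inactive = any of these conditions unmet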; also: one replicate is shown; some compounds called inactive have numbers as strong as hits
# LANA-H2A inh: blocks KSHV LANA binding to histone H2A/H2B. cell-free LANA-H2A/H2B peptide, fluorescence polarization. inhibition, % (concentration not given with the values). hit rate 0.6% among 320,000. Q9QR71; in the data active = inhibition mostly above about 10%, no sharp cut-off; inactive = mostly below about 6.7%;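 also: stock transfer was 7.5 nL into about 10 µL; 0% = median of vehicle wells and 100% = median of positive control wells; one replicate is shown; the record names a cut of 25% in any replicate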
# A1 inh: inhibitors of the anti-apoptotic protein A1, read as caspase activation; caspase activation, % (concentration not given with the values); MEF A1-2A-BIM cells, Caspase-Glo 3/7 luminescence, 3 h; percent of clofoctol response, vehicle zero; hit rate 0.066% among 330,000;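 active = over half of replicate activation scores above 10%, or exactly half above 10 with the replicate mean above 10; inconclusive = replicate mean below 10 yet half the replicates above 10; inactive = over half of replicates below 10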;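 also: wells of about 30 µL received 50 nL stock; many hits fall short of the cut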
# Ecoli rRNA inh OD600: second read-out of Ecoli rRNA inh, no call of its own (marks repeat the call); OD600 change, %; measured here: OD600 growth;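 optical density of the mix in the first replicate; 0 = DMSO median and -100 = no signal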
# Ecoli rRNA inh RFP: further read-out of Ecoli rRNA inh, marked with its call; RFP signal change, %; measured here: RFP humanized mutant strains;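 first replicate; 0 = DMSO median and -100 = no signal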
# Numbers without * were called inactive; ? = inconclusive; · = not tested or not shown. The list is partial. The share of hits here may be higher or lower than overall.
SMILES,Beta2AR agonist,Calb FLC,T cruzi inh,ALR H2O2 inh,Beta cell apopt,Ecoli rRNA inh,Ecoli rRNA inh OD600,Ecoli rRNA inh RFP,LANA-H2A inh,A1 inh
CC(C)CC(=O)Nc1ccc2c(c1)OCO2,-3,-3,-23,-5,·,23,8,-1.4,-2.5,4.5
CCCCC(=O)Nc1ccc(C(=O)Nc2ccc(OC)cc2[N+](=O)[O-])cc1,-9,-6,9,-9,1,·,·,·,-9.8,-0.5
Cc1cnc(NC(=O)CCc2ccccc2)s1,-10,-2,-16,0,·,18,12,3.1,1.4,1.3
COc1ccc(S(=O)(=O)N2CCCCCC2)cc1C(=O)N(C)Cc1ccc(Cl)cc1Cl,-1,·,31,-10,8,-3,-10,3.2,0.2,0.3
Cc1csc(SCC(=O)Nc2cccc(S(=O)(=O)N3CCCC3)c2)n1,1,?,-11,·,-7,·,·,·,·,-0.2
CCOc1ccccc1OCCCC(=O)Nc1sccc1C(N)=O,1,0,0,-3,2,-14,-4,-2.0,-0.3,0.6
COc1ccc(S(=O)(=O)N2CCC(C(=O)Nc3cccc(C(C)=O)c3)CC2)cc1C,4,-3,-12,-6,-4,·,·,·,-0.5,0.5
COc1ccccc1NCC(=O)N/N=C/c1sccc1C,6,-10,-5,2,-2,17,18,-0.2,0.0,-0.4
Cc1ccc(C(=O)NCCNC(=O)c2ccccn2)cc1,-2,-14,-2,3,-2,4,2,-2.0,4.2,-0.6
COc1ccc(C(=O)Nc2ccccc2Cc2ccccc2)c(OC)c1,0,-4,29,1,4,·,·,·,-0.4,0.4
COc1ccc(OCC(=O)N2CCN(S(=O)(=O)c3ccc(Cl)s3)CC2)cc1,-2,·,·,·,-2,·,·,·,-2.5,-0.8
CCOC(=O)Cn1nc(-c2ccccc2)ccc1=O,-2,10,5,0,0,·,·,·,-4.9,0.6
CCOC(=O)C1CCN(S(=O)(=O)c2c(C)[nH]c(=O)[nH]c2=O)CC1,2,-5,-7,·,-4,·,·,·,·,0.4
O=C(CSc1nc2ccccc2[nH]1)N/N=C/C=C\c1ccccc1[N+](=O)[O-],-12,11,-14,-9,-3,-28*,3.3*,1.2*,0.3,0.5
O=C(NCc1ccccc1)c1ccc(Cl)nc1,-4,5,3,-21,·,3,-2,0.3,-3.3,1.6
CN1CCN(C(=O)CSc2ccc(C(F)(F)F)cc2[N+](=O)[O-])CC1,-10,7,18,-13,-5,·,·,·,-4.9,-0.1
COc1ccc(-c2ncc(CN3CCN(CCC(C)C)C(CCO)C3)cn2)cc1 (stereo unspecified),-4,-5,61*,-4,1,-1,-3,0.2,-4.3,0.0
O=C(O)C1CCCCC1C(=O)NC1CCCCC1 (stereo unspecified),-1,21,-6,0,-3,·,·,·,-9.0,1.3
Cn1c(NC(=O)c2ccc(F)c(F)c2)cc(=O)n(C)c1=O,-3,-6,-6,-8,-4,10,14,0.0,5.5,-0.4
COc1ccc(Cc2nc3ccc(C(=O)NCCn4ccnc4C)cc3o2)cc1OC,-3,-8,-9,-7,-3,5,14,-1.9,2.1,0.0

# Three entries from above, ordered by the value under LANA-H2A inh, descending:
SMILES,LANA-H2A inh
COc1ccc(S(=O)(=O)N2CCCCCC2)cc1C(=O)N(C)Cc1ccc(Cl)cc1Cl,0.2
CC(C)CC(=O)Nc1ccc2c(c1)OCO2,-2.5
O=C(NCc1ccccc1)c1ccc(Cl)nc1,-3.3

# (more compounds)
SMILES,Beta2AR agonist,Calb FLC,T cruzi inh,ALR H2O2 inh,Beta cell apopt,Ecoli rRNA inh,Ecoli rRNA inh OD600,Ecoli rRNA inh RFP,LANA-H2A inh,A1 inh
O=C1C2CC=CCC2C(=O)N1c1ccc(NCCc2ccccc2F)c([N+](=O)[O-])c1 (stereo unspecified),3,0,18,-5,0,-16,-7,3.2,6.9,0.3
N#Cc1ccc(C(=O)Nc2ccc([N+](=O)[O-])cc2)c(F)c1,-1,-9,-18,-13,5,5,6,0.9,-1.9,0.0
O=C(Nc1cc([N+](=O)[O-])ccc1N1CCOCC1)c1cccs1,11,17,1,·,1,1,1,0.4,0.0,-0.8
COc1ccc(NC(=O)CS(=O)c2ccc(Cl)c(Cl)c2)cc1 (stereo unspecified),0,-8,-7,-3,-6,3,1,0.6,-3.2,-0.1
O=C(Cc1ccc2c(c1)OCCO2)Nc1cccc(S(=O)(=O)N2CCOCC2)c1,-3,·,·,·,-7,-1,-4,0.7,-2.8,0.9
CCOc1ccc(C(=O)Nc2c3c(nn2-c2ccc(C)cc2)CS(=O)C3)cc1OCC (stereo unspecified),-6,·,·,3,3,0,5,-4.0,1.9,0.7
CCOC(=O)c1nn(-c2ccc(C)cc2)c(=O)cc1OCC(=O)Nc1cccc(C)c1,-4,-8,-4,·,-5,18,7,1.9,·,-1.2
C=CCn1c(SCCNC(C)=O)nc2cc(-c3ccccc3)sc2c1=O,-7,-13,9,-2,1,5,4,-2.2,0.4,1.5
CC1(C)CC(=O)C(N=Nc2ccc(F)cc2)=C(O)C1,-12,-3,-22,-14,-5,7,3,-4.1,-0.9,-0.3
C=CCn1c2ccccc2c(=O)c2cc(C#Cc3ccsc3)ccc21,·,-32,43,2,6,·,·,·,1.9,-0.9
CC(Sc1nnc(-c2ccncc2)n1-c1ccc(F)cc1)C(=O)NC1CC1 (stereo unspecified),-10,·,·,11,-4,10,15,-0.6,2.8,-0.3
CCCCCCCn1c(=N)n(CC(=O)c2ccco2)c2ccccc21,34,3,43,-11,23,·,·,·,-0.8,1.2
O=C(C1CCCCC1)N1CCc2ccccc21,-3,11,4,0,-2,10,-9,-5.8,3.4,0.9
Cc1cc(Cl)c(OCCN2C(=O)NC(C)(C)C2=O)c(Br)c1,2,3,0,3,-5,·,·,·,-2.0,0.4
O=C(OCC(=O)N1CCOCC1)c1ccccc1O,-7,-3,-5,-2,-3,4,8,-1.9,-3.7,-4.0
COc1cccc(CNC(=O)c2ccc(Cl)c(NC3=NC4CS(=O)(=O)CC4S3)c2)c1 (stereo unspecified),6,-1,19,-6,-8,4,7,-4.6,3.6,1.0
O=C(COC(=O)c1ccc2c(c1Cl)C(=O)c1ccccc1C2=O)NC1CCCCC1,-9,-3,0,-2,-5,7,1,6.0,2.6,-2.2
CCn1c(=O)c2c(nc(SCC(=O)NCC3CCCO3)n2C)n(C)c1=O (stereo unspecified),4,-14,-27,0,2,7,-5,-2.6,1.7,1.1
COc1ccccc1NC(=O)c1ccccc1-c1ccccc1C(=O)O,-1,2,-8,·,0,1,0,-0.7,2.0,-0.2
CCn1c(SCC(=O)Nc2cccc(S(=O)(=O)N(C)c3ccccc3)c2)nnc1C1CC1,-4,·,·,-3,-3,-7,-8,-0.8,-2.4,0.7

# One compound at a time, from the list above. Screens in order: Beta2AR agonist | Calb FLC | T cruzi inh | ALR H2O2 inh | Beta cell apopt | Ecoli rRNA inh | Ecoli rRNA inh OD600 | Ecoli rRNA inh RFP | LANA-H2A inh | A1 inh
# Cc1cc(Cl)c(OCCN2C(=O)NC(C)(C)C2=O)c(Br)c1 as listed: 2 | 3 | 0 | 3 | -5 | · | · | · | -2.0 | 0.4
# O=C(O)C1CCCCC1C(=O)NC1CCCCC1 (stereo unspecified) as listed: -1 | 21 | -6 | 0 | -3 | · | · | · | -9.0 | 1.3

# Carrying on:
SMILES,Beta2AR agonist,Calb FLC,T cruzi inh,ALR H2O2 inh,Beta cell apopt,Ecoli rRNA inh,Ecoli rRNA inh OD600,Ecoli rRNA inh RFP,LANA-H2A inh,A1 inh
Cc1c(C)c2c(OCC(=O)NCC(O)c3ccccc3)cc3c(c2oc1=O)CCC(C)(C)O3 (stereo unspecified),-14,-3,0,·,6,·,·,·,-4.3,0.8
COc1ccccc1CNC(=O)C1CCC(CNS(=O)(=O)c2cccc3cccnc23)CC1 (stereo unspecified),10,-13,15,0,1,6,4,-2.6,3.5,-1.3
O=C(N=Nc1c(O)[nH]c2ccccc12)c1cccc(S(=O)(=O)Nc2ccccc2Cl)c1,-9,34,25,1,0,4,9,5.2,1.8,-4.9
O=C1CC(N2CCN(c3ccccc3Cl)CC2)C(=O)N1c1ccc(F)cc1 (stereo unspecified),11,-22,-20,-10,-4,·,·,·,-8.5,-0.3
CS(=O)(=O)N1CCN(c2ccccc2NC(=O)CSc2nnc(-c3ccco3)o2)CC1,-3,7,-5,-37,-3,·,·,·,1.4,0.0
O=C(CNC(=O)c1ccc(F)cc1)N/N=C/c1cc(Br)ccc1OC(=O)/C=C/c1ccco1,6,-6,34,·,53,-28*,-3.5*,-0.6*,0.0,-0.5
CCOC(=O)C1=C(C)N=C2SC(C)C(=O)N2C1c1ccccc1 (stereo unspecified),-4,34,-1,-12,1,-2,6,-2.2,-1.3,-0.2
CCOC(=O)Cn1c(CN2CCOCC2)nc2c1c(=O)[nH]c(=O)n2C,3,2,-10,-44,-5,4,7,3.1,1.0,1.3
CCn1nnnc1SCC(=O)N1c2ccccc2CCc2ccccc21,6,-5,11,1,-2,·,·,·,0.5,0.7
Cc1ccc(C)c(N2CCN(S(=O)(=O)c3c(C)noc3/C=C/N(C)C)CC2)c1,-1,9,17,·,-2,·,·,·,·,-0.1
O=C(Nc1cccc(S(=O)(=O)NC2=NCCCCC2)c1)c1cccnc1Cl,-12,13,5,·,·,6,0,-3.4,·,·
O=S(=O)(c1ccc(NC(=S)NCc2ccncc2)cc1)N1CCCCC1,-2,0,7,-4,-2,-9,-6,6.4,2.4,-0.1
COCC(=O)n1cc(C(=O)OC)c2ccccc21,-7,6,-7,-16,0,·,·,·,-0.5,-0.4
N#CCCN1CCCc2cc(N=Nc3ccc(C(F)(F)F)cc3)ccc21,9,9,41,-2,1,·,·,·,-8.2,-0.7
O=C(COC(=O)C1CC2CCCC(C1)C2=O)NNC(=O)c1ccc([N+](=O)[O-])cc1 (stereo unspecified),1,0,-2,-9,-2,13,10,-1.1,2.6,-0.5
COc1ccccc1-n1cnnc1SC(C)C(=O)Nc1ccc(NC(C)=O)cc1 (stereo unspecified),1,7,-1,-5,-6,·,·,·,4.0,0.4
CC(/C=N/n1c(-c2n[nH]c3c2CCC3)n[nH]c1=S)=C\c1ccco1,1,1,-14,94*,-3,3,5,4.1,-7.2,-0.7
O=C(CN1C(=O)c2cccc3cccc1c23)NC1CCCC1,0,-56,7,-11,-7,13,12,-2.4,-1.9,0.2
Cc1ccc(CNC(=O)c2ccc(NC(=O)C3=CSCCO3)cc2)cc1,4,16,1,2,-6,5,15,-1.7,-2.9,0.1
COc1ccc(/C=C2\CCc3ccccc3C2=O)cc1Cn1nc(C)cc1C,23,14,15,-11,9,·,·,·,-0.5,0.6

# Among those listed so far, these have a CF3 group.
SMILES,Beta2AR agonist,Calb FLC,T cruzi inh,ALR H2O2 inh,Beta cell apopt,Ecoli rRNA inh,Ecoli rRNA inh OD600,Ecoli rRNA inh RFP,LANA-H2A inh,A1 inh
CN1CCN(C(=O)CSc2ccc(C(F)(F)F)cc2[N+](=O)[O-])CC1,-10,7,18,-13,-5,·,·,·,-4.9,-0.1
N#CCCN1CCCc2cc(N=Nc3ccc(C(F)(F)F)cc3)ccc21,9,9,41,-2,1,·,·,·,-8.2,-0.7

# Screening data from PubChem.
